Source: PubChem BioAssay (National Center for Advancing Translational Sciences (NCATS))
VACV Venus inh – qHTS for Stage-Specific Inhibitors of Vaccinia Orthopoxvirus: Venus Reporter Primary qHTS; Vaccinia virus Venus reporter expression, fluorescence; Potency, µM (top dose mostly 36.5 µM), without a hit: top-dose activity change, negative = inhibition, actives largely listed as inhibitors; 0.46% of 330,000 active; AID 720580, 2013; active means well fitted inhibition curve with a large enough effect; inconclusive means small, poorly fitted or top-dose-only effect; inactive means no such curve, though single readings can be large or run the other way; tested in A549 cells; also: nearly all actives have a fitted effect of over 30% in size; inactives centre near -10
VACV mCherry inh – qHTS for Stage-Specific Inhibitors of Vaccinia Orthopoxvirus: mCherry Reporter Primary qHTS | 0.63% of 310,000 active | Potency, µM (series often up to 36.5 µM), for inactives: top-dose activity change, negative = inhibition, hits mostly inhibitors | Vaccinia virus mCherry reporter infection, fluorescence; about a quarter of the inactives have no number; active = well fitted inhibition curve with a large enough effect; inconclusive = small, poorly fitted or top-dose-only effect; inactive = no such curve, though single readings can be large or run the other way; tested in A549 cells; also: nearly all actives have a fitted effect of over 35% in size; inactives centre near -10
An asterisk follows results filed as active; i = inactive; ? = inconclusive; . = not tested or not shown; & = joins results of further samples; [ ] = another dose, or the depositor's remark. % is scaled to controls: 0 for no effect and ±100 for the full control effect; potency is read from the fitted curve at half-maximal effect. The order is random; about 0.86% have a hit in one of these screens.

Start of the listing, in advance, 26 compounds:
SMILES | VACV Venus inh | VACV mCherry inh
CCCNC(=O)c1nc(C)c(C)nc1C(=O)Nc1cccc(Cl)c1 | 7% | -14%
O=C(CCCCCn1c(=O)[nH]c2ccsc2c1=O)NCc1ccc(F)cc1 | -10% | i
Cc1ccc(-n2c(=O)c3cccnc3n2CC(=O)NCc2ccc(F)cc2)cc1C | -25% | -23%
COc1ccc(C(=O)/C=C(\C)NCc2ccc3c(c2)OCO3)cc1 | -20% | -3%[1.46 µM]
COc1ccccc1N1CCN(C(=O)CCCCn2c(=O)[nH]c3ccsc3c2=O)CC1 | -15% | i
COc1ccc(C)cc1S(=O)(=O)N1CCN(C)CC1c1ccccc1 (configuration not stated) | -18% | ?
CCc1cccc(NS(=O)(=O)c2csc(C(N)=O)c2)c1 | -11% | -24%
O=C(/C=C/c1ccccc1)NC(=S)N1C[C@H]2C[C@H](C1)c1cccc(=O)n1C2 | 4% | 0%
CCNC(=O)c1ccccc1SCC(=O)Nc1ccc(F)cc1 | -3% | 0%
O=C(C[n+]1cccc(C(=O)Nc2ccccc2)c1)c1ccccc1 | -12% | -16%
OCC1(Cc2ccc(F)cc2)CCCN(CCc2ccccc2)C1 (configuration not stated) | -13% | -9%
CCOCCCNC(=O)C(NC(=O)c1ccc(=O)[nH]c1)c1ccc(C)cc1 (configuration not stated) | -9% | -25%
Cc1ccc2cc(CN(C(=O)c3cccc(Cl)c3)c3ccccc3)c(=O)[nH]c2c1 | -19% | -3%
O=C1CCN(S(=O)(=O)c2ccccc2)CCN1CCOCc1ccccc1 | -8% | i
O=C(NNS(=O)(=O)c1ccc(F)cc1)C1CCN(S(=O)(=O)c2ccccc2)CC1 | -8% | -3%
N#CC(C(=O)NC1CC1)c1nc2ccccc2nc1N1CCCC1 (configuration not stated) | 14% | .
COC(=O)c1ccc(NC(=O)N2CCc3c([nH]c4ccccc34)C2c2ccc(C)cc2)cc1 (configuration not stated) | -24% | i
O=C(N/N=C\c1ccc(Cl)cc1)C1=NOC2COC3(CCN(c4ccc([N+](=O)[O-])cc4)CC3)OCC12 (configuration not stated) | -17% | ?
COc1ccc(C2C(C#N)=C(N)N(c3ccccc3)C3=C2C(=O)CCC3)cc1Cn1cc([N+](=O)[O-])cn1 (configuration not stated) | -12% | i
COc1ccc(C2N(c3ccccc3)CCN2c2ccccc2)cc1O | 5% | -5%
CCCCCCSc1ccc(-c2nc3cc(C)ccn3c2NC2CCCCC2)cc1 | -16%&-1% | -3%&-8%
O=C1N(c2ccccc2)C[C@@H]2C[C@@H](c3cc4ccccc4o3)N3CCC[C@@]123 | ? | 0.89µM*
CCCc1cc(=O)n2c(C(=O)Nc3ccc(OCC)cc3)c(C(=O)Nc3ccc(C)cc3)sc2n1 | -23% | -18%
O=[N+]([O-])c1cc(S(=O)(=O)N2CCCC2)ccc1OCc1ccccc1 | -6% | -2%
NC(=O)c1sc2nc(N3CCOCC3)c3c(c2c1N)CCCC3 | ? | .
O=C(COC(=O)c1ccccc1-c1nc2ccccc2s1)Nc1ccccc1C(F)(F)F | -16% | -2%

The list itself (from the top)
SMILES | VACV Venus inh | VACV mCherry inh
CCCNC(=O)c1nc(C)c(C)nc1C(=O)Nc1cccc(Cl)c1 | 7% | -14%
O=C(CCCCCn1c(=O)[nH]c2ccsc2c1=O)NCc1ccc(F)cc1 | -10% | i
Cc1ccc(-n2c(=O)c3cccnc3n2CC(=O)NCc2ccc(F)cc2)cc1C | -25% | -23%
COc1ccc(C(=O)/C=C(\C)NCc2ccc3c(c2)OCO3)cc1 | -20% | -3%[1.46 µM]
COc1ccccc1N1CCN(C(=O)CCCCn2c(=O)[nH]c3ccsc3c2=O)CC1 | -15% | i
COc1ccc(C)cc1S(=O)(=O)N1CCN(C)CC1c1ccccc1 (configuration not stated) | -18% | ?
CCc1cccc(NS(=O)(=O)c2csc(C(N)=O)c2)c1 | -11% | -24%
O=C(/C=C/c1ccccc1)NC(=S)N1C[C@H]2C[C@H](C1)c1cccc(=O)n1C2 | 4% | 0%
CCNC(=O)c1ccccc1SCC(=O)Nc1ccc(F)cc1 | -3% | 0%
O=C(C[n+]1cccc(C(=O)Nc2ccccc2)c1)c1ccccc1 | -12% | -16%
OCC1(Cc2ccc(F)cc2)CCCN(CCc2ccccc2)C1 (configuration not stated) | -13% | -9%
CCOCCCNC(=O)C(NC(=O)c1ccc(=O)[nH]c1)c1ccc(C)cc1 (configuration not stated) | -9% | -25%
Cc1ccc2cc(CN(C(=O)c3cccc(Cl)c3)c3ccccc3)c(=O)[nH]c2c1 | -19% | -3%
O=C1CCN(S(=O)(=O)c2ccccc2)CCN1CCOCc1ccccc1 | -8% | i
O=C(NNS(=O)(=O)c1ccc(F)cc1)C1CCN(S(=O)(=O)c2ccccc2)CC1 | -8% | -3%
N#CC(C(=O)NC1CC1)c1nc2ccccc2nc1N1CCCC1 (configuration not stated) | 14% | .
COC(=O)c1ccc(NC(=O)N2CCc3c([nH]c4ccccc34)C2c2ccc(C)cc2)cc1 (configuration not stated) | -24% | i
O=C(N/N=C\c1ccc(Cl)cc1)C1=NOC2COC3(CCN(c4ccc([N+](=O)[O-])cc4)CC3)OCC12 (configuration not stated) | -17% | ?
COc1ccc(C2C(C#N)=C(N)N(c3ccccc3)C3=C2C(=O)CCC3)cc1Cn1cc([N+](=O)[O-])cn1 (configuration not stated) | -12% | i
COc1ccc(C2N(c3ccccc3)CCN2c2ccccc2)cc1O | 5% | -5%
CCCCCCSc1ccc(-c2nc3cc(C)ccn3c2NC2CCCCC2)cc1 | -16%&-1% | -3%&-8%
O=C1N(c2ccccc2)C[C@@H]2C[C@@H](c3cc4ccccc4o3)N3CCC[C@@]123 | ? | 0.89µM*
CCCc1cc(=O)n2c(C(=O)Nc3ccc(OCC)cc3)c(C(=O)Nc3ccc(C)cc3)sc2n1 | -23% | -18%
O=[N+]([O-])c1cc(S(=O)(=O)N2CCCC2)ccc1OCc1ccccc1 | -6% | -2%
NC(=O)c1sc2nc(N3CCOCC3)c3c(c2c1N)CCCC3 | ? | .

The listing continues:
SMILES | VACV Venus inh | VACV mCherry inh
O=C(COC(=O)c1ccccc1-c1nc2ccccc2s1)Nc1ccccc1C(F)(F)F | -16% | -2%
O=C1OC(COCC#Cc2ccccc2)CN1c1ccccc1 (configuration not stated) | -19% | -6%
ClC1C(Cl)C(Cl)C(Cl)C(Cl)C1Cl (configuration not stated) | -16%&-9%&-9% | -14%&-11%
CCOc1ccccc1C(C(=O)NC1CCCC1)N(Cc1ccco1)C(=O)CNC(=O)c1ccco1 (configuration not stated) | -24% | -6%
NC(=S)n1[nH]c(-c2ccccc2)c(N=Nc2ccccc2C(=O)N2CCOCC2)c1=O | -13% | -1%
CC1=C(CC(=O)c2ccccc2)C(=O)c2ccccc2C1=O | -27% | ?
CCCC[n+]1ccn(C2=C([O-])c3ccccc3C(=O)/C2=N\S(=O)(=O)c2ccc(Br)cc2)c1 | 98%[activator] | ?
CCc1ccc(/C=N/NC(=O)c2cc(C3CC3)nc3ccc(Br)cc23)s1 | ? | ?
COC1=C(OC)C(=O)C(Sc2ccc3ccccc3c2)=CC1=O | -4% | -8%
OCC[C@@H]1C[C@@H](O)[C@H](O)[C@]2(Cc3ccccc3CO2)O1 | 2% | i
COC(=O)NCC(c1cccnc1)N1CCOCC1 (configuration not stated) | 10% | -22%
CC1CC(C)CN(C(=O)C2CCN(S(=O)(=O)N3CCC4(CC3)OCCO4)CC2)C1 (configuration not stated) | 2%[7.34 µM] | -7%[7.34 µM]
CCn1c(-c2ccccc2Cl)nn(CC(=O)Nc2cc(Cl)ccc2Cl)c1=S | -25% | -3%[1.46 µM]
COc1ccccc1NC(=O)COC(=O)c1oc2ccccc2c1C | -10% | -15%
COc1cc2c(cc1OC)CN(c1ccc([N+](=O)[O-])c(C(F)(F)F)c1)CC2 | -9% | -26%
CC1(Oc2cccc(F)c2)CCN(Cc2ccc(-c3ccccc3)o2)C1 (configuration not stated) | -11% | -25%
CCOC(=O)c1c(NC(=O)CN2C(=O)NC3(CCCCCC3)C2=O)sc(C)c1-c1ccc(C)cc1 | -19% | -20%
O=C(CN1CCN(c2ccccc2O)CC1)NC(=O)NCc1ccco1 | -17% | -23%
Cc1ccc([N+](=O)[O-])cc1 | -6% | i
Cc1c(O)ccc2cc(S(=O)(=O)c3ccccc3)c(=O)oc12 | -12% | -26%
CCOc1[nH]n(-c2ccccc2)c(=O)c1C=Nc1ccc(C(=O)OC)cc1 | -16% | i
Cc1ccc(NC(=O)c2ccc(Cn3cc([N+](=O)[O-])cn3)cc2)c(C)c1 | -20% | -29%
CCCS(=O)(=O)NC(=O)C1(C)CCN(C(=O)c2cccs2)C1 (configuration not stated) | 0% | 32%[activator]
Cc1cc(C(=O)CSc2nn3c(=O)c(C(C)(C)C)nnc3s2)c(C)n1-c1ccc(F)cc1 | 2% | .
CCC(C(=O)Nc1cccc(C(F)(F)F)c1)c1ccccc1 (configuration not stated) | -10% | .

(further entries)
SMILES | VACV Venus inh | VACV mCherry inh
COc1ccc(S(=O)(=O)Nc2ccccc2C(=O)N2CCCCC2)cc1C | -11% | -21%
CC(=O)N1CCc2cc(Br)cc(S(=O)(=O)N3CCC(C(=O)N(C)c4cc(C)ccc4C)CC3)c21 | -6% | -2%
CC1CN(C(=O)CSc2nnc3c(Cl)cc(Cl)cn23)CC(C)O1 (configuration not stated) | 8% | .
CCN(C(=O)c1cc2c(=O)n3ccccc3nc2s1)C1CCCCC1 | -3% | -14%
CC1(CO)COC(c2ccccc2)=N1 (configuration not stated) | -6% | -14%
CN1CCCC1CN1CCCC1 (configuration not stated) | -2% | -6%
CC1CN(c2ccc(NS(=O)(=O)c3ccccc3)cc2C(=O)O)CC(C)O1 (configuration not stated) | -3% | -1%
Cc1ccc(CCNC(=O)C2CCCN(Cc3nc(-c4cccc(Cl)c4)oc3C)C2)cc1 (configuration not stated) | ? | ?
COc1ccc([N+](=O)[O-])cc1NC(=O)CCN1CCN(C)CC1 | -6% | -28%
O=C(Cc1cccs1)Nc1ccc(N2CCOCC2)cc1 | -10% | -23%
CCOC(=O)c1cc(S(=O)(=O)NCc2ccc(OC)cc2)[nH]n1 | -11%[7.34 µM] | -9%[7.34 µM]
COc1ccc(S(N)(=O)=O)cc1C(=O)NNC(=O)CN(C)S(=O)(=O)c1ccc(Cl)cc1 | -4% | -12%
COc1ccc(NC(=S)N/N=C/c2cccn2Cc2ccc(F)cc2)cc1 | -10% | -24%
